Compound activity: PubChem BioAssay, National Center for Advancing Translational Sciences (NCATS)
Prx2 Sm inh: inhibitors of Schistosoma mansoni peroxiredoxin 2. S. mansoni Prx2 activity coupled to TGR/GSH (TGR is thioredoxin glutathione reductase), NADPH fluorescence loss, qHTS; some inactives read as strong as hits. Potency, µM. 0.07% of 65,000 active; active means full or partial inhibition curve with a strong effect at the top dose; inconclusive means weaker partial or single-point curve; inactive means no accepted curve; note: series up to 57 µM; many of its hits are not listed in these tables
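Prx2 activity was followed as the loss of NADPH fluorescence (ex 365/em 450 nm), read every 30 sec for 8 min after H2O2 start. The enzyme mix (50 nM Prx2, 25 nM TGR, GSH, NADPH; pH 7.4 phosphate buffer) was incubated with compound for 15 min at room temperature first.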
Anthrax LT inh: anthrax lethal toxin internalization inhibition; AID 912; Potency, µM (series often up to 40 µM), inactives show at the highest dose activity change, negative = inhibition, hits mostly inhibitors; 0.67% of 70,000 active; Cells, anthrax lethal toxin internalization, FRET ratio (460/530); active = well fitted falling ratio curve with the 530 nm signal flat; inconclusive = other ratio curves, or a change in one channel alone; inactive = flat curves in the ratio and both channels; the % refers to the ratio; note: % is set by controls: 0 for no effect and ±100 for the full control effect; nearly all actives have a fitted effect of over 50% in size; tested in ME-180 cells; beta-lactamase reporter
* hit, by the source's call; u = inconclusive; x = no result given; [ ] = dose if it differs, or a comment. Potency is the fitted concentration of half-maximal effect.

SMILES	Prx2 Sm inh	Anthrax LT inh
C=CCn1c(SC/C=C/c2ccccc2)nnc1-c1sc(N)nc1C	>57	-19.7%
CCN(CC)C(=O)c1sc2nc(-c3ccncc3)[nH]c(=O)c2c1C	>57	-4.8%
COCCCn1cnc2c(c1=O)c1nc3ccccc3nc1n2-c1ccc(C)cc1	>57	-4.7%
CN(C)Cc1ccc(O)c(CN(C)C)n1	>57	-6.5%[8 µM]
CCN(CC)CCSc1nc(O)c(-c2ccccc2)c(=O)[nH]1	>57	0.4%
Cc1ccc2nc(SCC(=O)Nc3c(C)n(C)n(-c4ccccc4)c3=O)[nH]c2c1	>57	1.0%
COC(=O)Cc1cc(=O)n(-c2ccccc2)[nH]1	>57	0.7%
O=C(NCCC1=CCCCC1)C1CCN(S(=O)(=O)N2CCOCC2)CC1	>57	x
CCOc1ccc(C)cc1S(=O)(=O)n1ccnc1	>57	2.9%
C=CCC1(O)C=CCC2C3C4C(OC(C)(C)C)C2C1C34 (configuration not stated)	x	-9.1%[8 µM]
Cn1c(=O)[nH]c(=O)c2c1nc(Br)n2Cc1ccccc1Cl	>57	-4.3%
Cc1c(O)ccc2c3c(c(=O)oc12)CCC(C)C3 (configuration not stated)	>57	14.6%
Cc1ccc(CNS(=O)(=O)c2ccc(C(C)(C)C)cc2)n1C	>57	-16.6%
C#CC(C)OC(=O)c1nnc2c3ccccc3n(COC)c2n1 (configuration not stated)	x	-5.7%[8 µM]
COc1ccccc1-c1cc(C(=O)Nc2ccccc2SC)no1	>57	-11.2%

Entries listed so far containing a tert-butyl group (2):
SMILES	Prx2 Sm inh	Anthrax LT inh
C=CCC1(O)C=CCC2C3C4C(OC(C)(C)C)C2C1C34 (configuration not stated)	x	-9.1%[8 µM]
Cc1ccc(CNS(=O)(=O)c2ccc(C(C)(C)C)cc2)n1C	>57	-16.6%

Next compounds follow:
SMILES	Prx2 Sm inh	Anthrax LT inh
CC1CCCN(C(=O)C23CCC(C)(C(=O)C2)C3(C)C)C1 (configuration not stated)	x	23.5%
Cn1c2ccccc2c2c(C(=O)NCC3CCCO3)cn(C3CCCC3)c(=O)c21 (configuration not stated)	>57	6.4%
O=C(Oc1ccc(S(=O)(=O)F)cc1F)c1ccccc1Cl	>57	3.2%[8 µM]
CN1CC[C@@]2(CCCN(C(=O)c3cccn3C)C2)C1	>57	-5.0%
COc1ccc(N2C(=O)CC(c3ccc(OC(C)C)cc3)C2=O)cc1 (configuration not stated)	>57	3.8%
CCOC(=O)CSC1=C(C#N)C(c2ccccc2F)C(C(C)=O)=C(C)N1 (configuration not stated)	>57	-4.8%
CC(CCc1ccco1)NC(=O)CSc1cc(=O)n(C)c2ccccc12 (configuration not stated)	>57	10.3%
COc1ccc(NC(=O)Cn2nnc(-c3ccccc3NC(=O)C3CC3)n2)cc1	>57	-5.7%
CCc1nc2oc3ccccc3c(=O)c2c(=O)n1-c1ccccc1	>57	1.4%
COc1ccccc1NC(=O)C1CCCCC1	>57	-19.5%
Cn1nnnc1SCC(=O)NCc1cccc(C(=O)O)c1	>57	u
c1ccc2c(c1)oc1c(NCc3ccc4c(c3)OCO4)ncnc12	>57	1.3%
CCn1c(SCC(=O)N2CCCc3ccccc32)nc2c(c1=O)SC(C)C2 (configuration not stated)	>57	2.6%
FC(F)(F)COc1nc(N2CCCCC2)nc(N2CCNCC2)n1	>57	-6.2%
CC(=O)Nc1nc2n(n1)C(c1ccc(F)cc1)C=C(c1ccccc1)N2 (configuration not stated)	>57	u
CN1C(=O)C(Cc2cccs2)C(=O)N(C)C1=O	x	-0.2%
Cc1cc(C)n(-c2ccc(-n3ccnc3)nn2)n1	>57	-7.8%
CCc1ccc(OCC(=O)OC2CCS(=O)(=O)C2)cc1 (configuration not stated)	>57	2.7%
Cn1c(N2CCCC2)nc2c1c(=O)n(Cc1ccc(F)cc1)c(=O)n2C	>57	u
COc1ccc(Cn2c(C)ccc2C)cc1	x	-5.7%
CCCCOC(=O)Nc1ccc(N2CCCCC2)cc1	x	u
COc1ccc(C(=S)N2CCN(C)CC2)cc1Br	>57	21.3%
CC(C)=C[C@H]1[C@@H](COC(=O)c2cc3c(cc2Cl)OCO3)C1(C)C	>57	-22.7%[8 µM]
CCCn1c(SCC(=O)NC(=O)NCc2ccco2)n[nH]c1=O	>57	u
CC1CN(Cc2nc3c(c(=O)[nH]c(=O)n3C)n2CCCc2ccccc2)CC(C)O1 (configuration not stated)	>57	-2.8%
CCOC(=O)c1cccc(NC(=O)CSc2nnc(COc3ccccc3)n2CC)c1	>57	u
COc1ccc(N2CCN(c3nc(=S)n(-c4ccccc4)c(C)c3C(C)=O)CC2)cc1	>57	-23.2%
CCCCCCCCCCCCCCCCCC(=O)O[C@H](CC(=O)O)C[N+](C)(C)C	>57	u
O=C1NC(=O)C2(Cc3ccccc3N3CCCC32)C(=O)N1c1cccc(Cl)c1 (configuration not stated)	>57	-22.4%
COc1ccc2nc(N3CCCC3)[nH]c2c1	>57	9.1%
CCOC(=O)N1CCC(N(CCOC)C(=O)Nc2ccc(Cl)c(Cl)c2)CC1	>57	u
CCn1c(NC(=O)c2cccs2)c(-c2cccs2)c(=O)c2ccccc21	>57	6.5%
Cc1cc2nnc(SC(C)C#N)n2c2ccccc12 (configuration not stated)	>57	6.9%
O=C(CCCCC(=O)N1CCN(c2ccccc2)CC1)N1CCN(c2ccccc2)CC1	x	-11.7%
Cc1cc(C)nc(SCC(=O)Nc2cc(C)on2)n1	x	-10.5%
COc1ccc(NC(=O)C2CCN(S(=O)(=O)c3ccc(OC)c(OC)c3)CC2)c(OC)c1	x	1.5%
CCc1ccccc1N1C(=O)C2CC(C)=C(C)CC2C1=O (configuration not stated)	x	-9.7%
COc1ccc(C)cc1NC(=O)c1ccc(N(C)S(C)(=O)=O)cc1	>57	-14.4%
COC(=O)c1sc(NC(=O)COc2ccccc2)nc1C	>57	-8.4%
CCOc1ccc(-c2cc(C(=O)NCCCN3CCN(CC)CC3)c3ccccc3n2)cc1	x	u
Cc1cc2oc(=O)cc(CN3CCc4ccccc43)c2cc1Cl	>57	-22.7%
CN1[C@@H]2CC[C@H]1CC(OC(=O)N1Cc3ccccc3NC1=O)C2 (some centres not stated)	x	-7.0%
CCOc1cc(NC(=O)C2CC2)c(OCC)cc1NC(=O)c1cccnc1	>57	-3.6%
O=C(Nc1ccc(N2CCCC2=O)cc1)c1cccc(F)c1	>57	5.3%
CNC(=O)[C@@]1(Cc2ccccc2)C=C[C@@H](C)N1C(C)=O	x	-2.8%
O=C(CN1C(=O)C2CCCN2C(=O)c2ccccc21)Nc1ccccc1-n1cccc1 (configuration not stated)	>57	10.5%
CCNc1oc(COc2cccc(C)c2)nc1C#N	>57	-0.7%
COc1ccc(C2CC(C(F)(F)F)n3nc(C(=O)NCCN4CCOCC4)cc3N2)cc1 (configuration not stated)	>57	-8.8%
c1coc(CNc2nc(-c3ccncc3)cs2)c1	>57	13.2%
CCc1noc(C)c1C(=O)N1CCOCC1	>57	-6.4%
Cc1cccc(CC(=O)Nc2cc(=O)n(C)c(=O)n2C)c1	>57	1.9%
COCCn1nnnc1CN(Cc1cc2cc(OC)c(OC)cc2[nH]c1=O)C1CCCC1	>57	-1.6%
CCCn1c(C)nc2c(NCCO)nc(C)nc21	x	-2.8%
Cc1cc(C)c(C#N)c(SCC(=O)Nc2ccccc2C(N)=O)n1	>57	15.4%
CCOC(=O)C1C(=O)Nc2nc(C)nn2C1c1ccccc1 (configuration not stated)	>57	-21.2%
O=C(NCc1cccs1)C1CCCN(S(=O)(=O)c2cnc[nH]2)C1 (configuration not stated)	>57	-4.6%
CCn1cc(C(=O)OCC(=O)Nc2c(C)n(C)n(-c3ccccc3)c2=O)c(=O)c2ccc(C)nc21	>57	-11.9%
O=C(c1ccco1)N1CCC2(CCN(Cc3nccs3)CC2)CC1	>57	1.2%
O=S(=O)(NCc1ccco1)c1cccc2cccnc12	>57	5.4%
Cc1ccc(-c2nc(CS(=O)(=O)CC(=O)N3CCCCCC3)c(C)o2)cc1	>57	-5.5%
The list goes on.
SMILES	Prx2 Sm inh	Anthrax LT inh
COC(=O)c1c(C)oc2ccc(NS(=O)(=O)c3cc(OC)ccc3OC)cc12	>57	-9.4%
COc1ccc(OCC(=O)NC2CC(C)(C)NC(C)(C)C2)cc1	>57	-1.3%
O=C(Cc1ccccc1)NCCSCc1ccco1	x	-4.3%
C[N+](C)(N)Cc1nc(-c2ccc(Cl)cc2)no1	>57	-18.4%[8 µM]
Cc1conc1NC(c1cccs1)c1ccc2cccnc2c1O (configuration not stated)	>57	x
COCCNC(=O)c1ccccc1-c1nc(-c2ccccc2OC)no1	>57	-1.4%
Fc1ccccc1N1CCN(c2ncnc3[nH]ncc23)CC1	>57	-3.5%
O=C(CSCc1n[nH]c(=O)[nH]1)NCCOc1cccc(Oc2ccccc2)c1	>57	2.2%
CC(Oc1ccc(C(=O)NC2CCCCC2)cc1)C(=O)O (configuration not stated)	>57	6.4%
CN1CCN(c2ncc3nc(-c4ccccc4)c(=O)n(CCC#N)c3n2)CC1	>57	-14.4%
N#Cc1ccc(CN2CC[C@@]3(CCCN(C(=O)c4ccco4)C3)C2)cc1	>57	u
O=C1c2ccccc2C(O)N1Cc1ccccc1Cl (configuration not stated)	>57	-6.7%
Cc1ccc(Cn2c(Sc3ncccn3)nc3c2c(=O)[nH]c(=O)n3C)cc1	>57	-18.1%
CS(=O)(=O)N1CCCC(c2nc(-c3ccc(S(=O)(=O)NCc4ccccc4)cc3)no2)C1 (configuration not stated)	>57	-25.8%
CCOC(=O)c1cc(-c2ccccc2)sc1NC(=O)CSc1nnnn1C	>57	2.9%
Cc1cc(C(=O)CN2C(=O)NC(c3ccccc3)(c3ccccc3)C2=O)c(C)n1Cc1ccco1	>57	u
Cc1onc(-c2ccccc2Cl)c1C(=O)NCc1ccccn1	>57	-8.1%
Cc1nc(SCC#N)c2c3c(sc2n1)CCC3	>57	1.9%
S=C1SCN(CCN2CCOCC2)CN1Cc1ccccc1	>57	-5.4%
COc1ccc(C)cc1S(=O)(=O)N1CCN(S(=O)(=O)c2cc(C)ccc2OC)C(C)C1 (configuration not stated)	>57	7.5%
COc1ccc(NC(=O)CSc2[nH]c(=O)cc(C)c2C#N)cc1OC	>57	-8.8%
O=C(Nc1ccc(Cl)c(Cl)c1)N1CC=CCC1	x	-27.1%
Cc1cc(C)cc(NC(=O)C2CCCN(c3nccc(C)n3)C2)c1 (configuration not stated)	>57	-3.3%
C[C@H](NC(=O)Nc1ccccc1F)C(=O)O	>57	-20.6%
CCOC(=O)/C(C#N)=C1/C=CN(c2ccccc2)C=N1	>57	-5.5%
CCc1n[nH]c2c1/C(=N\O)CC(C)(C)C2	>57	18.8%
COc1ccccc1-c1nc(-c2ccc(C)nc2OC)no1	>57	-5.8%
Cc1ccc(N(CC(=O)NCc2ccc3c(c2)OCO3)S(=O)(=O)c2c(C)noc2C)cc1	>57	-17.9%
Cc1ccc(C)c(OCCCC(=O)Nc2ccc(N3CCOCC3)cc2)c1	>57	5.2%
C=C(N(C)C)[C@]1(C)C[C@H]1[C@H](NC(=O)CNC(=O)OCc1ccccc1)c1ccccc1	x	3.5%
O=S(=O)(NCCc1csc(-c2cccnc2)n1)c1ccc2c(c1)OCCO2	>57	u
CN(C)c1ncnc2ccc(-c3ccccc3C#N)cc12	>57	-7.3%
COc1cc(OC)c(NC(=O)c2c(-c3ccccc3)noc2C)cc1Cl	>57	-11.4%
Cc1cc(NC(=O)C2CCN(S(=O)(=O)Cc3ccccc3)CC2)ccc1-n1cnnn1	>57	-3.3%
CCOc1cc2oc(=O)c3c(c2cc1Cl)CCC3	>57	-5.8%
Oc1ccc(Br)cc1CN1CCN(c2ccccc2)CC1	x	-6.1%
CCOC(=O)C1CCN(C(=O)c2n[nH]c(=O)c3ccccc23)CC1	>57	-19.3%
CC(C)(C)CC(=O)Nc1nnc(-c2cccs2)s1	>57	-2.1%
O=c1[nH]c(CSc2nnc(NCCCN3CCOCC3)s2)nc2cc(Cl)ccc12	>57	-4.6%
O=C(CSc1nc2ccccc2c(=O)n1CCC(=O)N1CCCCC1)NCc1ccccc1	>57	22.9%
CCc1cc(C(N)=S)ccn1	>57	-7.2%
CCCc1cc(=O)oc2cc(C)cc(OC(=O)c3ccco3)c12	>57	-29.2%
O=P(O)(O)C(O)C(F)(F)C(F)(F)C(F)(F)C(F)F (configuration not stated)	>57	4.9%
Cc1cc(OC(=O)N2CCCCC2)cc(C)c1Cl	>57	u
Cc1cc(Nc2ncc(Cl)cc2Cl)n(-c2ccccn2)n1	>57	1.0%
O=C1C=C(NCc2ccco2)CC(c2ccc(Cl)cc2)C1 (configuration not stated)	x	-25.7%

Rewritten with values under each structure: 7 of the compounds above
Below each compound – Prx2 Sm inh | Anthrax LT inh
CCOc1cc2oc(=O)c3c(c2cc1Cl)CCC3
→ >57 | -5.8%
Oc1ccc(Br)cc1CN1CCN(c2ccccc2)CC1
→ x | -6.1%
CCOC(=O)C1CCN(C(=O)c2n[nH]c(=O)c3ccccc23)CC1
→ >57 | -19.3%
CC(C)(C)CC(=O)Nc1nnc(-c2cccs2)s1
→ >57 | -2.1%
O=c1[nH]c(CSc2nnc(NCCCN3CCOCC3)s2)nc2cc(Cl)ccc12
→ >57 | -4.6%
O=C(CSc1nc2ccccc2c(=O)n1CCC(=O)N1CCCCC1)NCc1ccccc1
→ >57 | 22.9%
CCc1cc(C(N)=S)ccn1
→ >57 | -7.2%

Not all compounds are listed (hit frequency here may not be typical).
